# LASV entry inh – Lassa virus entry inhibition; actives 1.2% (n = 300,000); Lassa virus pseudotype entry inhibition, cell reporter; control for the full effect not named in the record; Potency, µM (top dose mostly 37.9 µM), without a hit: top-dose activity change, negative = inhibition, usual class: inhibitors; active means well fitted inhibition curve with a large enough effect; inconclusive means small, poorly fitted or top-dose-only effect, or effect the other way; inactive means flat fitted curve, though single readings scatter; tested in HEK293 cells; note: % is set by controls: 0 for no effect and ±100 for the full control effect; nearly all actives have a fitted effect of over 50% in size; luciferase read-out
# NS1 inh – blocks influenza NS1 protein function. S. cerevisiae slowed by influenza A NS1, growth recovery by OD600. Potency, µM (series often up to 46.1 µM), for inactives: at the highest dose activity, positive = more growth. actives 0.4% (n = 270,000); note: actives are rising curves; nearly all actives have a fitted effect of over 50% in size
#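 Compounds were scored for reversing the slow growth caused by influenza A NS1 in S. cerevisiae, measured by optical density at 600 nm. Assay medium contained 2% galactose at pH 6.0; NS1-free yeast of the same strain were the positive control.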
# Cruzain noTriton – inhibitors of Trypanosoma cruzi cruzain without detergent; Potency, µM, for inactives: max response, negative = inhibition, usual class: inhibitors; purified cruzain, Z-FR-AMC fluorescence, no detergent; P25779; actives 2.3% (n = 200,000); active = well fitted curve in the direction sought with a large enough effect; inconclusive = small, poorly fitted or top-dose-only effect, or another doubt; inactive = no such curve, though single readings can be large; an effect the other way counts as inactive or inconclusive;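 note: plate controls were enzyme without inhibitor for no effect and buffer without enzyme for full effect; nearly all actives have a fitted effect of over 40% in size; top concentration of the series not given in the record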
# Target sequence (P25779 123-467 limits assumed): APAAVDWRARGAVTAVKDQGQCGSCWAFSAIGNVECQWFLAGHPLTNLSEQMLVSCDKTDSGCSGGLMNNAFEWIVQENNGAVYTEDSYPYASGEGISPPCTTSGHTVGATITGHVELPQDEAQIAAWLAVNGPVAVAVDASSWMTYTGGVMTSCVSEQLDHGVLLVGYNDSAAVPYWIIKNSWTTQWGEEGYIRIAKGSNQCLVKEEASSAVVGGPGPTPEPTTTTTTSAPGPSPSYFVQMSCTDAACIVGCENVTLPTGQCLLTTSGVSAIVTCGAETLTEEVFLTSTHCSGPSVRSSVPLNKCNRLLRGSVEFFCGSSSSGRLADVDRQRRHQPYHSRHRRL
#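 Detergent-free condition (0.00005% Triton X-100) in acetate buffer pH 5.5 with DTT. 1.5 nM enzyme and compound were pre-mixed 15 min, then 2 uM Z-FR-AMC substrate added; reaction progress from fluorescence change between first and third reads (60 s).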
# Cruzain Triton – cruzain (T. cruzi) inhibition with detergent; P25779; purified cruzain, Z-FR-AMC fluorescence, 0.01% Triton; Potency, µM, for the others: max response, negative = inhibition, actives largely listed as inhibitors; actives 0.43% (n = 200,000); active = well fitted curve in the direction sought with a large enough effect; inconclusive = small, poorly fitted or top-dose-only effect, or another doubt; inactive = no such curve, though single readings can be large; an effect the other way counts as inactive or inconclusive;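 note: plate controls were neutral wells for no effect and buffer without enzyme for full effect; nearly all actives have a fitted effect of over 40% in size; top concentration of the series not given in the record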
#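 Enzyme 1.5 nM, Z-FR-AMC 2 uM, NaOAc 100 mM pH 5.5, DTT 5 mM, Triton X-100 0.01%; 15 min RT compound preincubation; kinetic ex360/em450, 60 s delta.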
# RE007 growth inh – less growth of the S. pombe RE007 Vpr strain; S. pombe RE007 Vpr strain, BacTiter-Glo ATP luminescence, 24 h; control for the full effect not named in the record; Potency, µM (titrated, usually from 92.2 µM), inactives show at the top dose activity change, negative = less growth; actives 0.21% (n = 360,000); active = well fitted falling curve with a large enough effect; inconclusive = small, poorly fitted or top-dose-only effect; inactive = no such curve, though single readings can be large or run the other way;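 note: % is set by controls: 0 for no effect and ±100 for the full control effect; nearly all actives have a fitted effect of over 50% in size; the assay follows cell death caused by Vpr and the record does not say whether a fall means rescue or toxicity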
#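 Fission yeast RE007 carrying one integrated HIV-1 vpr copy, seeded at OD 0.01 in PMG+AL medium with 23 nL pinned compound. Grown 24 h at 30 degrees; viability read by BacTiter-Glo luminescence after 5 min.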
# MARV entry inh – blocks Marburg virus binding to or entry into cells | Potency, µM (titrated, usually from 37.8 µM), without a hit: at the top dose activity change, negative = inhibition, most hits filed as inhibitors | AID 540276 | Marburg virus pseudotyped entry inhibition, cell reporter; control for the full effect not named in the record; about a third of the inactives were read at about 46 µM | actives 1.8% (n = 300,000); active = well fitted inhibition curve with a large enough effect; inconclusive = small, poorly fitted or top-dose-only effect, or effect the other way; inactive = flat fitted curve, though single readings scatter; tested in HEK293 cells; about a fifth of its hits are not listed in these tables; note: % is set by controls: 0 for no effect and ±100 for the full control effect; luciferase read-out
# SARS PLpro yeast – inhibitors of SARS-CoV papain-like protease in yeast | S. cerevisiae expressing SARS-CoV PLpro, growth rescue; control for the full effect not named in the record | Potency, µM (doses to about 32.9 µM), inactives show at the top dose activity, positive = growth rescue | actives 0.19% (n = 330,000) | AID 485353; note: 0% is about no effect; nearly all actives have a fitted effect of over 55% in size; growth read by luminescence after 48 h
# 2A StopGo – lowers the luciferase signal of an FMDV 2A StopGo reporter; human cells with a luciferase reporter of 2A StopGo recoding; control for the full effect not named in the record; Potency, µM (doses to about 57.9 µM), inactives show at the top dose signal change, negative = less light; actives 1.2% (n = 410,000); active = well fitted falling curve with a large enough effect; inconclusive = small, poorly fitted or top-dose-only effect; inactive = no such curve, though single readings can be large or run the other way; tested in HEK293T cells; note: % is set by controls: 0 for no effect and ±100 for the full control effect; nearly all actives have a fitted effect of over 45% in size; luciferase light after 4 h
# * marks the source's active call; other numbers are inactive results; ? = inconclusive; . = not tested or not shown; & = joins results of further samples; [ ] = dose if it differs, or a comment. Unless noted, calls come from the whole dose curve; as a rule, active means well fitted rising curve with a large enough effect; inconclusive means small, poorly fitted or top-dose-only effect; inactive means no such curve, though single readings can be large or run the other way. Potency is the fitted concentration of half-maximal effect.
SMILES,LASV entry inh,NS1 inh,Cruzain noTriton,Cruzain Triton,RE007 growth inh,MARV entry inh,SARS PLpro yeast,2A StopGo
O=C(NCCCN=C1NS(=O)(=O)c2ccccc21)c1ccccc1Cl,?,3%,.,.,-5%,-3%[46.1 µM],-3%,24%
CC(=O)Nc1ccc(SCC(=O)c2cc(C)n(Cc3cccs3)c2C)cc1,.,?,?,-3.5%,-6%,?,10%,22µM*
CC(=O)Nc1ccc(N2C(=O)C3C4C=CC(CC4)C3C2=O)cc1 (centres undefined),.,1%,.,.,6%,.,-3%,-16%
Cc1cccc(C)c1NC(=O)C(C)N1CCCCC1 (centres undefined),4%[46.1 µM],2%,.,.,-14%,-2%[46.1 µM],-2%,-21%
O=C(Nc1nnc(Cc2ccccc2F)s1)c1ccccc1Cl,.,-5%,.,.,-1%,.,5%,8%
CCOC(=O)C1C(=O)CC(C)(O)C(C(=O)OCC)C1c1cccs1 (centres undefined),4%,2%,5%,0.5%,-2%,-1%,3%,-14%
COc1ccc(OC)c(CC(=O)Nc2ccc3c(c2)CCC3)c1,0%,-21%,.,.,-16%,-4%[46.1 µM],-3%,0%
CN(C)/C=C1\SC(=S)N(c2ccc(Br)cc2)C1=O,.,?,.,.,-3%,.,-4%,49%[activator]
CCN(CC)S(=O)(=O)c1ccc(C(=O)N2CC(=O)Nc3ccc(F)cc3C2c2ccccc2)cc1 (centres undefined),?,.,4%,-3.3%,.,-26%[46.1 µM],.,-1%
O=C(c1cc(S(=O)(=O)N2CCOCC2)ccc1Cl)N1CCN(c2ccccn2)CC1,-1%[46.1 µM],1%,.,.,-14%,16%[46.1 µM],2%,6%
COc1cc(CNCCO)ccc1OC1CCCC1,-11%[14.3 µM],5%,-8%,0.2%,1%,?,15%,0%
S=C(Nc1ccc(Nc2ccccc2)cc1)Nc1ccccn1,?,-1%,.,.,?,?,-2%,-20%
Cc1ccc(-n2nnnc2CCl)cc1,?,14%,.,.,16%,26%[46.1 µM],0%,?
CCCCNC(=S)NNC(=O)c1csc(C)c1CC,-5%,-4%,-14%,-3.8%,4%,?,0%,85%[activator]
COC(=O)C(NNc1ccccc1)(NC(=O)c1ccccc1F)C(F)(F)F (centres undefined),-3%,-2%,-1%,-7.2%,-3%,-5%,-9%,-14%
O=C(NCc1ccco1)c1cccc(-c2nnc(-c3ccccc3)o2)c1,?,-64%,-15%,-0.4%,6%,?,-6%,-3%
CN(C)c1ccc(C(O)Cc2nc3ccccc3n2C)cc1 (centres undefined),.,-9%,.,.,?,.,-7%,-5%
O=C(Nc1ccnc(=O)[nH]1)c1sc2ccccc2c1Cl,.,-41%,.,.,-23%,.,10%,14%
COc1ccccc1CCNC(=O)C1(C)CC1(Cl)Cl (centres undefined),-22%[46.1 µM],-11%,.,.,35%,?,-3%,9%
COc1ccc(NC(=O)CC2COc3ccccc3O2)c(OC)c1 (centres undefined),1%,-56%,5%,-0.2%,-24%,2%,7%,0%
CCOC(=O)c1c(C)[nH]c(C(=O)N/N=C\c2ccccc2O)c1C,8.9µM*,-8%,11%,-4.1%,-10%,?,?,12%
Cn1cc(C(=O)N2CCc3ccccc32)cn1,?,4%,-18%,-3.3%,-3%,?,7%,0%
O=C(Nc1ncn[nH]1)c1cc([N+](=O)[O-])ccc1Cl,.,-1%,.,.,15%,.,3%,-8%
O=C(CSc1nccn1-c1ncc(C(F)(F)F)cc1Cl)c1ccc(Br)cc1,?,-146%,-2%,-2.5%,4%,?,-3%,-16%
O=C(OCC(=O)N1CCCC1)c1cc(F)c(F)cc1Cl,18%,8%,.,.,-12%,2%[46.1 µM],-1%,7%

# Additional records follow:
SMILES,LASV entry inh,NS1 inh,Cruzain noTriton,Cruzain Triton,RE007 growth inh,MARV entry inh,SARS PLpro yeast,2A StopGo
CN(Cc1ccc(Cl)cc1Cl)C(=O)CNC(=O)c1ccc2c(c1)OCO2,-20%,.,.,.,-1%,-1%,-12%,-20%
CN(C)S(=O)(=O)c1ccc(-c2csc(N/N=C/c3ccc(O)cc3)n2)cc1,7.1µM*,20%,.,.,-9%,7.3µM*,2%,14µM*
N#Cc1ccc(C(=O)Nc2cccc3cccnc23)c(F)c1,-11%,1%,.,.,9%,-25%,1%,-6%
CC(C)COC(=O)C1C2C=CC3(CN(C(C)c4ccc(Br)cc4)C(=O)C13)O2 (centres undefined),.,-10%,49%,-1.4%,-7%,1%,1%,-18%
COc1ccc(N2Cc3ccccc3C2=O)cc1,?,-14%,.,.,?,?,-12%,-20%
Cc1ccc(S(=O)(=O)N2CCOC2CNC(=O)C(=O)NCc2cccnc2)cc1 (centres undefined),2%,8%,6%,0.4%,1%,-10%,-2%,-22%
COc1cc2cnc(-c3ccccc3)c(-c3cccc(C(F)(F)F)c3)c2cc1OC,.,.,.,.,-13%,-2%,-28%,?
COc1cccc(-c2cc(C(=O)Nc3cccnc3)no2)c1,0%,-79%,1%,-1.3%,-9%,?,4%,3%
O=C(C1CCN(S(=O)(=O)c2cccc3cccnc23)CC1)N1CCCCC1,.,-1%,.,.,-8%,.,0%,-15%
CCOc1ccc(-c2cc(CCCC(=O)NCCc3ccc(OC)c(OC)c3)no2)cc1,?,.,?,0.2%,.,?,.,-22%
Cc1ccc(SCc2nc(-c3ccc(C(=O)NCc4ccc(Cl)cc4)cc3)oc2C)cc1,17%[46.1 µM],.,7%,-0.5%,.,.,.,-6%
O=C(Cn1c(SCc2ccccc2)nc2ccccc21)N1CCOCC1,?,-2%,-1%,1.8%,9%,23%,2%,47%[activator]
CCOC(=O)c1c(-c2ccc(C)cc2C)csc1NC(=O)c1ccccc1Cl,2%[46.1 µM],.,1%,0.3%,.,.,.,-16%
O=C(/C=C/c1cc[n+](CC(=O)c2ccc3cccc4c3c2CC4)cc1)c1ccc2cccc3c2c1CC3,.,-36%,.,.,-8%,.,2%,-13%
c1ccc(-c2ccc(Oc3cc(N4CCOCC4)nc(-c4ccccc4)n3)cc2)cc1,3%,-1%,10µM*,4.0%,-7%,1%,2%,-14%
CN(C)C(/C=C/Nc1ccc(C#N)cc1)=C(C#N)C#N,-12%,-10%,-4%,-5.3%,-13%,5%,4%,.
CCOc1ccc(NS(=O)(=O)c2c(C)nc3sc(CC)nn3c2=O)cc1,-11%[46.1 µM],4%,-17%,-3.6%,3%,8%[46.1 µM],0%,-6%&-15%
COC(=O)c1cc2ccsc2n1CC(=O)N(C)C1CCCCC1,3%,-3%,17%,-3.2%,-8%,-6%,-3%,-16%
COc1ccc(-c2nc(NC(=O)C3CC(=O)N(c4ccc5c(c4)OCCO5)C3)sc2C)cc1 (centres undefined),?,11µM*,2%,-5.0%,9%,?,-2%,?
COc1ccc(CCNCc2ccc(OC)c(OC)c2OC)cc1,9%,4%,?,4.6%,-7%,-4%,5%,.
O=C(NCCN1CCN(c2ccccc2)CC1)c1cccn2c(=O)c3cc(Cl)ccc3nc12,0%,-57%,?,2.0%,2%,-1%&-19%,-2%,-13%
CN1CCC(N(C)C(=O)c2cc(-c3ccc(F)cc3)nc3ccccc23)CC1,?,.,.,.,1%,-27%,-12%,-10%
O=C(O)CN1C(=O)S/C(=C\c2cccnc2)C1=O,.,-1%,.,.,4%,.,0%,-15%
COc1ccccc1NS(=O)(=O)c1cc([N+](=O)[O-])ccc1N/N=C/c1c(C)[nH]c2ccccc12,?,9%,7.9µM*,-0.3%,12%,?,-3%,-4%
CCN1CCN(C(=O)c2ccc3c(=O)n(CCc4ccccc4)c(=O)[nH]c3c2)CC1,15%,16%,.,.,-2%,4%,2%,16%

# Next part
SMILES,LASV entry inh,NS1 inh,Cruzain noTriton,Cruzain Triton,RE007 growth inh,MARV entry inh,SARS PLpro yeast,2A StopGo
CCOC(=O)c1[nH]c2ccc(F)cc2c1NC(=O)C1=COCCO1,-2%,-14%,-2%,-9.7%,8%,0%,14%,-8%
Cc1ccccc1Cc1ccc(Cl)nn1,-1%,.,.,.,11%,7%[46.1 µM],-3%,6%
CSCc1cc(N2CCOCC2)nc(SCc2ccc(Cl)c(Cl)c2)n1,9%,-53%,-2%,-11%,-9%,1%,?,.
N#Cc1ccccc1S(=O)(=O)c1ccccc1C(=O)Nc1ccccc1,19%,.,.,.,-8%,18%[46.1 µM],-5%,-10%
COc1ccc(Cl)cc1NC(=O)c1ccc2c(SCC(=O)O)c3c(nc2c1)CCCC3,6%[46.1 µM],?,.,.,-1%,23%[46.1 µM],5%,0%
O=C(COc1ccc(S(=O)(=O)NC2CCCCC2)cc1Cl)Nc1ccc2c(c1)OCO2,?,-2%,-10%,-0.2%,3%,?,-13%,-11%
Cc1cc(=O)oc2cc(OC(C)C(=O)O)c(Cl)cc12 (centres undefined),23%,-7%,6%,-1.7%,-2%,16%,4%,.
CC(C)C(=O)Nc1ccc(C(=O)NNC(=O)CCc2ccccc2)cc1,-1%,4%,3%,0.2%,-24%,?,6%,-15%
O=C1C(Cl)=C(N2CCOCC2)C(=O)N1CCc1ccccc1,-21%,-4%,-5%,-3.9%,-8%,-8%,-3%,-16%
Cc1nn(Cc2ccc(Cl)cc2Cl)c(Cl)c1C(=O)NC1CCCc2ccccc21 (centres undefined),5%,8%,-24%,-5.1%,4%,6%,3%,20µM*
Cc1ccccc1N1CCN(c2ncnc3c2cnn3Cc2ccc(Cl)cc2)CC1,?,-32%,-26%,2.3%,1%,?,-11%,?
COc1ccc(/C=N/OCC(=O)NCC(C)C)c(OC)c1,-14%[46.1 µM],.,.,.,26%,12%[46.1 µM],1%,-17%
CC(C)c1nc2n[nH]c(N)c2c2c1CCC2,-1%,13%,-9%,-0.1%,-9%,-19%&-19%[46.1 µM],-2%,-16%
COc1ccc(Cl)cc1C(=O)NNC(=S)NC1CCCC1,6%[46.1 µM],3%,.,.,-15%,?,-1%,15%
CC(C)C[C@H](NC(=O)C1CCN(C(=O)[C@H](Cc2ccccc2)NC(=O)OC(C)(C)C)CC1)C(=O)O,.,4%,.,.,0%,.,6%,-7%

# Screening results deposited in PubChem BioAssay by National Center for Advancing Translational Sciences (NCATS).
